NPYLR7 ag – agonists of mosquito NPYLR7 receptor, primary screen, cell-based, Aedes aegypti, calcium fluorescence, mosquito biting behavior | Aedes aegypti neuropeptide Y-like receptor 7 (NPYLR7) | HEK293T NPYLR7/Galpha15, GCaMP6s calcium fluorescence | activation, % at 10 µM | 270,000 compounds, 0.15% hits; in the data active = activation above about 40%;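 also: 0% = vehicle and 100% = reference agonist at the receptor; some compounds past the cut are filed as inactive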
NPYLR7 ag max-min – further read-out of NPYLR7 ag, marked with its call; activation, %; measured here: Max-Min RFU normalised activation; some inactives read as strong as hits;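 span of the calcium signal over five minutes; 0% = vehicle and 100% = native peptide agonist; compound fluorescence can raise it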
An asterisk follows results filed as active; & = joins results of further samples. A portion of the library; the hit share may differ from the screen's.

Start of the data: the first 15 compounds (preview)
SMILES | NPYLR7 ag | NPYLR7 ag max-min
COc1cccc(C2CCN2Cc2c(C)n(CC(N)=O)c3ccccc23)c1 (configuration not stated) | 8 | 9
CNC(=O)CN(C(=O)c1cccs1)[C@H]1[C@H](OC)[C@@H]2O[C@H]1c1ccccc12 | 14 | 23
CC(C)c1cc(N2CCN(c3ccccc3F)CC2)nc(SCc2ccc(C(=O)O)o2)n1 | 14 | 23
Cc1nn(CC(=O)N2CCCCCC2)c(C)c1[N+](=O)[O-] | 1 | 1
CN1CCN(CC(O)Cn2cnc3c2c(=O)n(C)c(=O)n3C)CC1 (configuration not stated) | -2 | -4
CCOc1ccc(-c2ccc(C(=O)NCc3cccc(F)c3)s2)cc1 | 0 | 9
S=C(Nc1ccccc1)Nc1nccs1 | 2 | -25
O=C(O)C1C2CCC(C2)C1C(=O)NCc1ccco1 (configuration not stated) | -7 | -9
CC1Oc2ccc(F)cc2N(Cc2ccc3c(c2)OCO3)C1=O (configuration not stated) | -6 | -7
CCS(=O)(=O)Oc1ccc(CN(CCOC)C(=O)Nc2ccccc2OC)cc1 | 30 | 20
Oc1c(C2=NCCN=C(C(F)(F)F)C2)ccc2ccccc12 | -1 | -1
CN(CCC(O)c1ccccc1)C(=O)CCCn1nnnc1CN1CCOCC1 (configuration not stated) | -1 | -2
N#Cc1ccc(CN2CC[C@@]3(C2)[C@@H](O)CN(c2ccccc2)S3(=O)=O)cc1 | 4 | 20
Brc1ccccc1-c1nnc(SCc2nc3ccccc3o2)o1 | -1 | -2
C=C(C)C1CC=C(CN2CCN(c3ccccc3)CC2)CC1 (configuration not stated) | -1 | -7

This part in full (from the top)
SMILES | NPYLR7 ag | NPYLR7 ag max-min
COc1cccc(C2CCN2Cc2c(C)n(CC(N)=O)c3ccccc23)c1 (configuration not stated) | 8 | 9
CNC(=O)CN(C(=O)c1cccs1)[C@H]1[C@H](OC)[C@@H]2O[C@H]1c1ccccc12 | 14 | 23
CC(C)c1cc(N2CCN(c3ccccc3F)CC2)nc(SCc2ccc(C(=O)O)o2)n1 | 14 | 23
Cc1nn(CC(=O)N2CCCCCC2)c(C)c1[N+](=O)[O-] | 1 | 1
CN1CCN(CC(O)Cn2cnc3c2c(=O)n(C)c(=O)n3C)CC1 (configuration not stated) | -2 | -4
CCOc1ccc(-c2ccc(C(=O)NCc3cccc(F)c3)s2)cc1 | 0 | 9
S=C(Nc1ccccc1)Nc1nccs1 | 2 | -25
O=C(O)C1C2CCC(C2)C1C(=O)NCc1ccco1 (configuration not stated) | -7 | -9
CC1Oc2ccc(F)cc2N(Cc2ccc3c(c2)OCO3)C1=O (configuration not stated) | -6 | -7
CCS(=O)(=O)Oc1ccc(CN(CCOC)C(=O)Nc2ccccc2OC)cc1 | 30 | 20
Oc1c(C2=NCCN=C(C(F)(F)F)C2)ccc2ccccc12 | -1 | -1
CN(CCC(O)c1ccccc1)C(=O)CCCn1nnnc1CN1CCOCC1 (configuration not stated) | -1 | -2
N#Cc1ccc(CN2CC[C@@]3(C2)[C@@H](O)CN(c2ccccc2)S3(=O)=O)cc1 | 4 | 20
Brc1ccccc1-c1nnc(SCc2nc3ccccc3o2)o1 | -1 | -2
C=C(C)C1CC=C(CN2CCN(c3ccccc3)CC2)CC1 (configuration not stated) | -1 | -7
O=C(NCC1CCCO1)c1cccnc1N1CCN(S(=O)(=O)c2cccc(Cl)n2)CC1 (configuration not stated) | 7 | 12
O=C(CSc1nnc2sc3ccccc3n12)Nc1ccccc1F | 9 | 3
Cc1cc(C(=O)N(CCCN2CCOCC2)c2nc3ccc(F)cc3s2)n(C)n1 | 0 | 1
COCCn1c(SCc2cc(=O)oc3c(C)c(C)ccc23)nnc1-c1ccncc1 | -1 | 21
CC(C)(C)c1ccc(CC2CCN(C(=O)Nc3ccc(F)cc3F)CC2)cc1 | 22 | 18
CN(C)Cc1ccc(C2CCCN2C(=O)C(N)=O)cc1 (configuration not stated) | -1 | -3
O=C1OCC(CO)(CO)N=C1NNc1cc(Cl)ccc1Cl | -18 | -23
COc1ccc(C(=O)N2C(C(=O)NCc3ccco3)COC23CCCCC3)cc1OC (configuration not stated) | 1 | 12
CC(C)(C(=O)N1CCN(C(=O)C2Cc3ccccc3O2)CC1)c1ccccc1 (configuration not stated) | 11 | 3
O=C(NC(CCO)C1CC1)C1(c2ccccc2)CCC1 (configuration not stated) | 3 | 2
Next part:
SMILES | NPYLR7 ag | NPYLR7 ag max-min
Cc1ccccc1NC(=O)CCNC(=O)Nc1ccccc1 | 10 | 4
Cc1nn(-c2ccccc2)c(C)c1CC(=O)Nc1c(N(C)C)nc[nH]c1=O | 2 | 0
CN1CC(NC(=O)N2CCC(Nc3ccccc3F)CC2)CCC1=O (configuration not stated) | 11 | 10
COc1ccc2c(c1)CCc1c(-c3ccc(C(=O)NC(C)c4ccc(Br)cc4)cc3)n[nH]c1-2 (configuration not stated) | 1 | 2
CC1=NNc2nc3c(c(=O)n(CC=Cc4ccccc4)c(=O)n3C)n2C1 | 2 | -3
O=C(NCc1ccc(Cl)cc1)c1cc(=O)c(OCc2ccc(F)cc2)co1 | 1 | 1
CC(C)c1cc(C(=O)N2C[C@H]3C[C@H](C2)[C@@H]2CCCC(=O)N2C3)n[nH]1 | 1 | 6
CC1=C(C(=O)OC(C)(C)C)C(c2cccc(Oc3ccccc3)c2)N2C(CC(=O)O)=CSC2=N1 (configuration not stated) | 28 | 22
Cc1ccc(-c2nc(N3CCC(N(C)C)C3)ncc2-c2ccc(N)nc2)cc1 (configuration not stated) | -1 | -5
CCc1ccccc1NC(=O)NC(C)c1nnc(SCc2cccc(OC)c2)n1-c1ccc(C)cc1 (configuration not stated) | 14 | 26
Cc1ccc(-c2cc(C(=O)N(C)C(C)Cc3ncccc3C)n[nH]2)o1 (configuration not stated) | -6 | -13
COc1cccc(-n2c(C)c(C)n3c4c(=O)n(C(C)C(C)=O)c(=O)n(C)c4nc23)c1 (configuration not stated) | 11 | 7
Cc1cccc2[nH]nc(-c3cccnc3)c12 | 1 | -2
O=c1[nH]c2ccc(S(=O)(=O)N3CCCC3c3ccc4c(c3)OCCO4)cc2[nH]1 (configuration not stated) | 5 | 4
C=CCn1cc(CNC23CC4CC(C2)CC(n2cncn2)(C4)C3)c(C)n1 | 2 | 0
COCCn1cc(C(=O)O)c2nn(-c3ccccc3)c(=O)c-2c1 | -5 | -6
Cc1ccc(/C=N\Nc2nc(Nc3ccccc3)nc(N3CCCCC3)n2)c(C)c1 | -10 | -15
COc1ccccc1-n1cc(CNC(=O)CCc2nnc(C3CCCCC3)o2)cn1 | 16&2 | 3&0
Cc1ncc2c(c1CNC(=O)c1ccc3c(c1)OCO3)CCN(C(=O)/C=C/c1ccccc1Cl)C2 | 6 | 0
FC(F)(F)C1CCCCC1NCc1ccc2ccccc2c1 (configuration not stated) | -2 | -2
COc1ncccc1C(=O)NC1CCCN(c2nc3ccccc3s2)C1 (configuration not stated) | 15 | 7
OC(CN1CCC(Cc2ccc(F)cc2)CC1)c1ccc(Cl)cc1 (configuration not stated) | -2 | -21
CCc1nn(-c2cccc(F)c2)c(CC)c1C(=O)NCCN(C)C | 15 | 15
C=CCOCC(O)CN(Cc1ccco1)Cc1ccc(C)s1 (configuration not stated) | 23 | 31
C#CCNC(=O)CCc1ccc(S(N)(=O)=O)cc1 | 7 | 6
(list continues)
SMILES | NPYLR7 ag | NPYLR7 ag max-min
Cc1nc(N2CCCCC2)ncc1C(=O)N1CCC2(CCCO2)CC1 | 4 | 2
CN(Cc1nc(Cc2ccccc2Cl)no1)C1CCOCC1 | -3 | -7
Cc1cccc(-c2cc(N)n(-c3ccc(C(=O)NCCc4ccc(O)cc4)cc3)n2)c1 | -4 | -7
Cc1cccc(-c2ccc(NC(=O)C3CCN(Cc4cnc(N(C)C)s4)CC3)cc2)c1 | 7&6 | 1&6
Cc1ccc(S(=O)(=O)n2ccc(C(=O)N3CCOCC3C)c2)cc1 (configuration not stated) | 9 | 5
O=S(=O)(NCc1ccccc1)Nc1cccc(-c2cnco2)c1 | 6 | 2
CCOc1cc(C2NC(=O)c3cccnc3N2)ccc1OC (configuration not stated) | -1 | 0
O=C(CN1CCCC1C(=O)OCc1ccccc1)Nc1nncs1 (configuration not stated) | 4 | 5
CCOC(=O)c1nc2ccccc2nc1N1CCCN(C(=O)CCC(=O)OC)CC1 | 5 | 1
O=C(Nc1ccc(Cl)cc1)C(C1CCCC1)N1CCN(C(=O)C2CCC2)CC1 (configuration not stated) | -3 | 4
CC(C)(C)Nc1nnc(SCC(=O)Nc2ccccc2F)s1 | 17 | 8
CCOC(=O)C1(Cc2cccc(OC)c2)CCN(CC#Cc2ccccc2)CC1 | 5&-6 | -1&-14
CC(C)OCC(=O)N(C)CC1(C)CCN(C)C1 (configuration not stated) | 23 | 14
COc1ccccc1-n1c(C)nnc1SCc1ccc(C(=O)N2CCN(c3ccccc3F)CC2)cc1 | 4 | 11
COc1ccc(Cl)cc1NC(=S)N1CC(=O)N2CCc3cc(F)ccc3C2C1 (configuration not stated) | 27 | 11
COC(=O)C(CC(C)C)NC(=O)C1CCN(S(=O)(=O)c2ccc(F)cc2)CC1 (configuration not stated) | 1 | -8
CN(Cc1ccco1)C(=O)C(C1CCCC1)N1CCN(C(=O)c2ccc(F)cc2F)CC1 (configuration not stated) | 2 | 18
N#Cc1ccc(NCC(=O)N2CCN(S(=O)(=O)c3ccc4c(c3)CCC4)CC2)cc1 | 0 | 6
CN(C)NC(=S)NC(=O)C12CC3CC(CC(C3)C1)C2 | 3 | 1
Fc1ccc(CN2COc3cc4c(cc3C2)OCO4)cc1 | 12 | 7
CCc1ccc2nc(N(CCCN(C)C)C(=O)Cc3ccccc3)sc2c1 | 1 | -1
CCOc1cc(Br)cc(/C=C2/NC(=S)NC2=O)c1O | -5 | -4
CN(C)c1nccnc1Oc1ccccc1CN1CCOCC1 | 11 | 8
CN(C)CCCN(C(=O)CCS(=O)(=O)c1ccc(F)cc1)c1nc2ccccc2s1 | -2 | -7
CCn1c(=O)n(CC(=O)N(CCO)Cc2cc(Br)ccc2F)c2ccccc21 | 8 | 4
New compounds follow:
SMILES | NPYLR7 ag | NPYLR7 ag max-min
Cc1ccccc1-n1c(SCc2nc(C(=O)NCc3cccc(C(F)(F)F)c3)cs2)nnc1-c1cccnc1 | -7 | 5
NS(=O)(=O)c1cccc(NC2CC(=O)N(c3ccccc3C(F)(F)F)C2=O)c1 (configuration not stated) | 0 | -4
CN(Cc1ccc(S(C)(=O)=O)cc1)Cc1ccc2c(c1)CCCN2C | 7 | 6
CC1=NN(CC(=O)N(C)C(C)Cc2ncccc2C)CC1 (configuration not stated) | 16 | 9
CC1Cc2cc(-c3cc(C(=O)O)no3)ccc2O1 (configuration not stated) | -4 | -5
COc1ccc2cc(-c3nc4ccccc4[nH]3)c(=Nc3cccc(C(F)(F)F)c3)oc2c1 | -6 | -12
O=c1ccnc(SCn2nnc3ccccc3c2=O)[nH]1 | 0 | 1
C=CCn1cc(Cc2cn(CC=C)nc2C)c(C)n1 | 8 | 3
CC1=NC2=C(C(=O)CCC2)C(c2ccccc2Cl)C1C(=O)OC1CCCCC1 (configuration not stated) | -6 | -11
O=C(c1cccnc1)N1CCC(n2c(Cc3ccccc3)nc3ccccc32)CC1 | 1 | 10
Cc1ccc(N2CC(NC(=O)c3cc4n(n3)CCCN(C)C4)CC2=O)cc1 (configuration not stated) | 20 | 14
CCN1CCN(c2ccc(Cl)cc2NC(=O)c2ccoc2C)CC1 | 6 | 2
COc1ccc(Cc2nc3c(c(=O)[nH]2)CN(CC(O)C(C)C)CC3)cc1 (configuration not stated) | 26 | 35
O=C(NCC1CCCO1)[C@@]1(OCc2cccc(Cl)c2)CC(OCc2c(F)cccc2F)[C@H](O)[C@H](O)C1 (some centres not stated) | 6 | 9
O=C(CCc1ccccc1)NNC(=O)c1csc(N2CCOCC2)n1 | 21 | 7
Cc1c(CC(=O)NC2CCSC2)c2c(n1Cc1ccccc1)CCCC2=O (configuration not stated) | -3 | -6
CC(=O)N1CCCN(C(C)C(=O)Nc2ccc(OC(F)(F)F)cc2)CC1 (configuration not stated) | 8 | 4
CN(C)S(=O)(=O)c1cc(N=CC(C#N)C#N)ccc1Cl | 7 | 2
CCOc1cc(CNc2ncnc3c2cnn3C)ccc1OC(F)F | 0 | 0
COc1cc(OC)cc(-c2nnc(SCc3ccccn3)n2-c2ccc(C)cc2)c1 | -2 | 4
CCOC(=O)c1ccc(NC(=O)N(CCOC)Cc2cccc(OS(=O)(=O)CC)c2)cc1 | -12 | -14
Cc1cc(C2N=C(N)Nc3nc4ccccc4n32)c(C)n1-c1ccc(I)cc1 (configuration not stated) | 11 | 11
CCn1c(C)nnc1SCCNc1cc(OC)ncn1 | 17 | 5
CN1CCC(N(C)C(=O)NC2CC(=O)N(c3ccc4c(c3)OCCO4)C2)CC1 (configuration not stated) | -4 | 3
CCCc1ccc(CN2CCN(Cc3cccc(F)c3)CC2)o1 | -1 | 1
c1ccc2c(c1)OCC(CNc1ncnc3sc4c(c13)CCCC4)O2 (configuration not stated) | 2 | -1
O=C(NCCCn1ccnc1)[C@@]1(OCc2ccccc2F)CC(OCc2cccc(F)c2F)[C@H](O)[C@H](O)C1 (some centres not stated) | 18 | 5
COc1ccc(-c2csc(-n3[nH]c(C)c(N=Nc4ccc([N+](=O)[O-])cc4OC)c3=O)n2)cc1 | -4 | -6
O=C(NC1CC(=O)N(CCc2ccc(F)cc2)C1)c1n[nH]c2c1CCC2 (configuration not stated) | -7 | -10
O=C(CSc1nc2c(c(=O)n1Cc1ccccc1)SCC2)NCCc1ccccc1 | -3 | -3

Assay outcomes as filed in PubChem BioAssay.
